Source: PubChem BioAssay (ICCB-Longwood Screening Facility, Harvard Medical School)
Sa growth inh: S. aureus growth inhibition at 42 and 30 °C, primary screen, LtaS inhibitor project, RN4220, two temperatures; OD600, 20 h, 42 °C; active compounds read low; relative growth, % (test concentration not listed); 170,000 compounds, 0.53% hits;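 active = growth at 42 °C up to 50% and 20 or more points under that at 30 °C, or under 10% at both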;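 note: 300 nL library stock went into each well; scaled to the means of positive and negative controls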
GIV Gai3 FP: inhibitors of GIV peptide binding to Galpha-i3, primary screen, biochemical, fluorescence polarization, FITC-GIV GBA peptide, rat Galphai3; 90 min; active compounds read low; scaled: aluminum fluoride 0%, vehicle 100%; percent of control (FP), % (concentration not given with the values); 210,000 compounds, 0.42% hits;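 active = replicate mean at 85% of control or lower, very high polarization wells dropped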;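 note: wells of about 15 µL received 100 nL stock; the first replicate is given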
Target sequence (P08753 whole entry, looked up): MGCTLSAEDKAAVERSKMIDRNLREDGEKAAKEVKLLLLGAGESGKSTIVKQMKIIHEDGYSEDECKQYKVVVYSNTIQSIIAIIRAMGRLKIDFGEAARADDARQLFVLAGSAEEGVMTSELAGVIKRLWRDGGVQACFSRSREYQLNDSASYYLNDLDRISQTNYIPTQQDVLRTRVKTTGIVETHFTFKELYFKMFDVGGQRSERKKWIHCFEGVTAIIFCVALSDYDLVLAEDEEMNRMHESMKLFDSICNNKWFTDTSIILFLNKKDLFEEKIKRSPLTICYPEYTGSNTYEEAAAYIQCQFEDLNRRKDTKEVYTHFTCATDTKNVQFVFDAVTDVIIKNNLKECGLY
HCMV UL50-53 inh: inhibitors of HCMV UL50-UL53 interaction, biochemical, HTRF | HCMV UL50-UL53 nuclear egress complex (human cytomegalovirus) | normalized percent inhibition | inhibition, % (test concentration not listed) | 190,000 compounds, 0.15% hits | AID 1918969, 2023;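 active = both replicates at 50% or more, plus weaker picks with an unusually low signal ratio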;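 note: stock transfer was 100 nL into about 20 µL; 0% = negative control wells and 100% = wells with untagged competitor protein; inactives centre near -12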
Sa growth inh second temp: also measured in Sa growth inh; calls as there; relative growth, %; measured here: growth at 30 °C;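 optical density after 20 h as mean of two plates; 100% = untreated growth and lower means inhibition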
An asterisk follows results filed as active; nt = no result given; & = joins results of further samples. Random draw from the library, and some 0.79% of all compounds hit somewhere here.

compound,Sa growth inh,Sa growth inh second temp,GIV Gai3 FP,HCMV UL50-53 inh
Cc1oc2ccc(NS(=O)(=O)c3ccc(C(C)(C)C)cc3)cc2c1C(=O)OC(C)C,nt,nt,107,-14
COC(=O)c1ccc2c(=O)n(CCC3=CCCCC3)c(SCC(=O)C(C)(C)C)nc2c1,81,88,104,nt
COc1ccc(-c2nc3sc(CCNC(=O)c4ccco4)c(C)n3n2)cc1,122,91,104,nt
O=C(CCSc1ccc(F)cc1)NNc1ccc(C(=O)O)cc1,82,90,nt,-8
CC(c1nc2ccccc2n1CCOc1ccccc1)N1CCCCC1 (stereo unspecified),nt,nt,99,-17
CCCCN(CC)c1cn[nH]c(=O)c1Cl,78,94,nt,-42
COc1ccc(CCNC(=O)Cn2c(=O)n(-c3ccc(OC)c(OC)c3)c(=O)c3ccccc32)cc1OC,89,90,104,-12
Cc1cccn2c(=O)c(/C=C(\C#N)C(=O)N3CCOCC3)c(Oc3ccccc3)nc12,99,84,98,-36
O=C1Nc2c(c(=O)[nH]c(=O)n2-c2ccccc2)C1(NS(=O)(=O)c1ccc(Cl)cc1)C(F)(F)F (stereo unspecified),107,100,106,24
CCN(CC)C(=O)Cn1cnc2sc(C(=O)N3CCN(c4ccc(F)cc4)CC3)c(C)c2c1=O,112,92,98,nt
Cc1ccc(N(CC(=O)NC(C)c2ccccc2)S(=O)(=O)c2c(C)noc2C)cc1 (stereo unspecified),104,89,100,-13
CC(OC(=O)c1ccc(NC(=O)CC#N)cc1)C(=O)Nc1ccccc1 (stereo unspecified),91,83,nt,1
COc1cc(-c2nn3cc(-c4ccccc4)nc3s2)cc(OC)c1OC,81,77,103,-15
CCOc1ccc2oc(=O)cc(CN3CCN(c4ccc(OC)cc4)CC3)c2c1,93,71,97,-44
Cc1ccc(S(=O)(=O)Cc2csc(N)n2)cc1,100,94,99,-33
O=C(CN1CCOCC1)Nc1ccccc1,119,72,99,-6
Cc1ccc(-c2nn(CC(=O)NCc3ccccn3)c(=O)c3ccccc23)cc1S(=O)(=O)N1CCCCC1,90,77,106,-5
COc1ccc(OC)c(NC(=O)CSc2nnc(NC(=O)C3CC3)s2)c1,103,72,98,14
CCN1CCSc2ccc(C(=O)NCc3ccccn3)cc21,88,84,97,nt
CC(C)(C)CC(C)(C)N1CNC(=S)NC1,84,83,98,-14
O=C(O)CN1CCc2ccccc2C1,105,87,106,37
COCC(C)n1c(COc2ccccc2F)nnc1SCC(=O)c1ccc2c(c1)NC(=O)CO2 (stereo unspecified),83,70,nt,5
Cc1ccc(C(=O)OCC(=O)N2CCCC2)cc1,84,95,nt,-3
CCn1nc(CC(=O)Nc2nnc(CC(=O)N3CCCC3)s2)c2ccccc2c1=O,80,92,97,-6
Cc1ccc(CNC(=O)c2cc3c(=O)[nH]c4ccccc4c3n2C)cc1,93,91,103,-8
COC(=O)CN(C)S(=O)(=O)c1c(C)cc(C)cc1C,94,107,108,6
CC1CCCC(C)N1C(=O)CSc1ncccn1 (stereo unspecified),89,88,nt,-13
COc1ccc(-c2nc3c(s2)CN(S(=O)(=O)c2ccccc2)CC3)cc1,nt,nt,96,-20
O=C(/C=C/C(=O)N1CCCc2ccccc21)N1CCN(c2ccc(F)cc2)CC1,102,94,nt,1
Cc1cc(C)nc(/N=C(/N)N2CCC(C)CC2)n1,90,83,103,nt
CC(C)n1c(=N)c(C(=O)NCc2cccnc2)cc2c(=O)n3ccccc3nc21,104,109,107,-70
CCN1CCN(C(=O)c2nc(-c3ccc(C)cc3)n3c2CCCCC3)CC1,98,89,104,-14
CC(C)(C)NC1C=C(c2ccccc2)Sc2nc(-c3ccccc3)cn21 (stereo unspecified),81,91,100,nt
CCOc1cc2c(cc1CNC(CN1CCOCC1)c1ccc(C)cc1)OC(C)C2 (stereo unspecified),112,92,nt,-13
CCOc1ccccc1CN1CCc2nc(N3CCN(C)CC3)ncc2C1,92,93,105,nt
Brc1ccc(-n2cnc(-c3ccccc3)c2)cc1,99,84,nt,14
CC(C)NC(=O)CN1C(=O)C2CCCC2=Nc2ccccc21 (stereo unspecified),nt,nt,101,-16
CCN(C1=NS(=O)(=O)c2ccccc21)N(CC)S(=O)(=O)c1ccc(C)cc1,69,81,105,nt
N#Cc1ccc(C(=O)OCC(=O)NCc2ccccc2)cc1,100,87,nt,-47
O=C(CCS(=O)(=O)c1ccccc1)Nc1ccc2nc3n(c(=O)c2c1)CCCCC3,109,77,103,6
Cc1ccc(/C=C/C(=O)OC(C)C(=O)Nc2ncc(Cl)cc2Cl)o1 (stereo unspecified),100,91,nt,-6
CCOCCOC(=O)c1ccc2c(c1)N(CC(=O)Nc1cccc(F)c1)C(=O)c1ccccc1S2,nt,nt,99,-4
O=c1cc(-c2ccncc2)oc2ccccc12,79,69,102,-108
CCCCOc1ccc(CNC(=O)C2CCCN(c3nnc(-n4c(C)ccc4C)s3)C2)cc1 (stereo unspecified),90,90,102,-17
CCCNC(=O)c1[nH]c2cc(C)ccc2c1Sc1ccc(Cl)cc1,nt,nt,99,-22
Cn1c(=O)n(C)c2cc(N3CCCC3)c(NC(=O)NC3CCCC3)cc21,nt,nt,102,13
CC1=Nc2ccccc2N=C(N)C1c1ccccc1 (stereo unspecified),111,95,103,-2
CCOc1ccc(-c2n[nH]c3c2cnc2cc4c(cc23)OCCO4)cc1,nt,nt,102,-37
CCOc1ccc(C(=O)/C=C/C(=O)Nc2ccc(F)cc2)cc1,97,99,101,6
C=CCN1C(=O)S/C(=C\c2ccc(OCC(=O)OC)cc2)C1=O,115,99,106,-49
Cn1c(=O)cc(OCC(=O)NCc2cccs2)c2ccccc21,89,91,99,-20
Cc1cc(C)nc(/N=C(/NC(=O)c2ccccc2)N2CCC(C(N)=O)CC2)n1,99,94,nt,-8
CCC(C)N1CC(C(=O)NCc2ccc3c(c2)OCO3)CC1=O (stereo unspecified),113,81,102,4
C=CCn1c(SCC(=O)Nc2cc(C)ccc2C)nc2sc3c(c2c1=O)CCC3,nt,nt,91,-10
O=C(/C=C/c1ccco1)OCC1CCCN2CCCCC12 (stereo unspecified),76,83,105,-33
CN(C)c1ccc(-c2nc3c4ccccc4c4ccccc4c3n2C)cc1,108,85,104,nt
O=C(c1ccc(F)cc1)N(C(=O)c1ccc(F)cc1)c1ncccn1,100,90,nt,-2
C(=NC1=NN(c2ccccc2)CC1)N1CCCCC1,79,77,nt,-28
O=C(CSc1nc2ccccc2nc1Cc1ccc(Cl)cc1)N1CCN(c2ccccc2)CC1,103,88,98,nt
COc1ccc(NC(=O)CCCn2nc(-n3cccc3)c3c(C)cc(C)nc32)cc1,nt,nt,110,-5

The listing continues.
Below each compound – Sa growth inh	Sa growth inh second temp	GIV Gai3 FP	HCMV UL50-53 inh
- O=C(CSc1ncccc1C(=O)NCC1COc2ccccc2O1)Nc1ccc2c(c1)OCO2 (stereo unspecified)
    88	86	nt	0
- N#Cc1ccc(C2N(c3ccccc3)CCN2c2ccccc2)cc1
    113	110	nt	-8
- O=S(=O)(Nc1nc2ccccc2nc1Cl)c1ccccc1
    77	82	nt	-57
- O=C(O)c1ncoc1-c1ccccc1Cl
    98	105	103	0
- Cn1cc(-c2cc3n(n2)CCC(=O)N3CC(=O)N2CCN(c3ccccc3)CC2)c2ccccc21
    nt	nt	101	-26
- NS(=O)(=O)c1ccc(CNC(=O)c2ccccc2)s1
    79	64	101	-17
- CCOc1ccc2nc(NCCNC(=O)Nc3cccc(Cl)c3)c(C#N)cc2c1
    104	86	103	-27
- CNC(=O)Oc1ccc2c(c1)[C@]1(C)CCN(C)C1N2C (stereo partly specified)
    95	87	nt	-49
- Cc1ccc(C(C)NC(=O)C(C)(C)C)c(C)c1 (stereo unspecified)
    88	89	99	-2
- O=S(=O)(Nc1nc2ccccc2[nH]1)c1ccc2ccccc2c1
    93	79	nt	-22
- O=C(NCc1cccnc1)c1ccc(CN2CC(=O)N3CCCCC3C2=O)cc1 (stereo unspecified)
    nt	nt	101	-15
- CC(O)CNCc1cccc2ccccc12 (stereo unspecified)
    108	104	nt	7
- Cc1cc(C)c2c(-n3cccc3)nn(CC(=O)NC3CC3)c2n1
    106	92	100	-24
- O=C(Cn1c(=O)oc2ccccc21)OCC(=O)N(C1=CCCCC1)C1CC1
    100	60	nt	-18
- CC(C)c1cc(NC2CCCC2)n2c(nc3ccccc32)c1C#N
    95	86	103	-24
- O=C(CCSc1nc2ccccc2s1)Nc1ccc(Br)cc1
    nt	nt	101	-15
- COc1ccc(N=C2SC(C(=O)Nc3ccc(OC)cc3)CC(=O)N2CCc2ccccc2)cc1 (stereo unspecified)
    nt	nt	106	-11
- COc1ccccc1C(=O)OCC(=O)NC1CCCC1
    105	91	nt	-24
- Cc1ccc2nc(C(=O)O)cc(Nc3ccc(C)c(C)c3)c2c1
    nt	nt	106	-75
- O=C(Nc1ccccc1)C1CCCCC1
    112	87	100	nt
- O=S(=O)(CCSc1ncccn1)c1ccc(F)cc1
    93	88	104	-18
- Cc1cccc(N2CCN(C3(c4ccccc4)C(=O)c4ccccc4C3=O)CC2)c1C
    106	85	98	nt
- CCCCN(CC)C(=O)C(CC)N1C(=O)CCCc2ccccc21 (stereo unspecified)
    nt	nt	109	-11
- O=C(c1c[nH]c2c(F)cccc2c1=O)N1CCNCC1
    113	108	97	-11
- CN(C1CCCCC1)S(=O)(=O)c1ccccc1NC=C(C#N)C#N
    105	79	nt	-9
- Cc1nnsc1-c1nc(-c2ccc(Cl)s2)cs1
    95	90	104	-36
- CCCOC(=O)C1=C(C)NC2=C(C(=O)CC(c3ccc(OC)cc3)C2)C1c1ccc(OC)cc1OC (stereo unspecified)
    nt	nt	105	2
- CCCCOC(=O)c1cc(O)c(O)c(O)c1
    121	70	95	4
- Cc1ccc(C(=O)Nc2cccc(-n3c(C)nc4ncccc4c3=O)c2)cc1C
    nt	nt	101	-2
- O=C1OC2(CCCC2)OC(=O)C1=Cc1ccc(OCc2ccccc2)cc1
    84	98	nt	29
- CC(C)n1c(=N)c(C(=O)NC2CCCC2)cc2c(=O)n3ccccc3nc21
    89	74	104	-61
- CC1=C(c2ccc(C(C)C)cc2)S(=O)(=O)NC1=NCc1ccc(Cl)cc1
    124	101	96	-2
- Cc1ccc(Cl)cc1NC(=O)C(C)n1nc(-c2ccccc2)c2c(c1=O)CCCC2 (stereo unspecified)
    nt	nt	104	12
- Cn1ccnc1SCC(=O)N1CCc2ccccc21
    92	91	nt	-19
- COc1cc(CNCc2ccc(F)cc2)ccc1OCc1ccc2c(c1)n(C)c(=O)n2C
    nt	nt	109	0
- Oc1ccccc1-c1cc(C(F)(F)F)nc(-c2ccccc2)n1
    92	85	108	-25
- COCc1cc(C)nc2sc(C(=O)OC)c(-n3cccc3)c12
    111	84	nt	-10
- O=C(NCCC1=CCCCC1)c1cn(-c2ccccc2)cn1
    nt	nt	107	-32
- Cc1cc2cc(CNC(=S)NCc3ccccc3)ccc2[nH]1
    102	85	97	nt
- C(=C\c1c[nH]c2ccccc12)/c1ccccc1
    102	87	107	-4

Five compounds picked at random from the list so far:
Below each compound – Sa growth inh	Sa growth inh second temp	GIV Gai3 FP	HCMV UL50-53 inh
- CCCOC(=O)C1=C(C)NC2=C(C(=O)CC(c3ccc(OC)cc3)C2)C1c1ccc(OC)cc1OC (stereo unspecified)
    nt	nt	105	2
- Cc1ccc(C(=O)Nc2cccc(-n3c(C)nc4ncccc4c3=O)c2)cc1C
    nt	nt	101	-2
- O=S(=O)(CCSc1ncccn1)c1ccc(F)cc1
    93	88	104	-18
- CCCCOC(=O)c1cc(O)c(O)c(O)c1
    121	70	95	4
- CC1=C(c2ccc(C(C)C)cc2)S(=O)(=O)NC1=NCc1ccc(Cl)cc1
    124	101	96	-2

Other results.
Below each compound – Sa growth inh	Sa growth inh second temp	GIV Gai3 FP	HCMV UL50-53 inh
- CN/N=C/c1cc2cc(OC)ccc2nc1Cl
    93	94	nt	-58
- CC1CC(=O)Nc2ccccc2N1C(=O)C1CC1 (stereo unspecified)
    nt	nt	106	12
- CCOC(=O)C1CCN(c2c(C(=O)c3ccc(C)cc3)cnc3ccc(F)cc23)CC1
    12	-1	98	-7
- O=c1c2ccccc2[nH]c(=S)n1C1CCCC1
    94&66	87&81	99&96	-27
- CC(=O)Nc1cc(C(=O)NC2CCCC2)ccc1Sc1ccc(C)cc1
    97	72	105	7
- CCOC(=O)C1CCN(C(=O)Cn2cc(C(F)(F)F)cc(Cl)c2=O)CC1
    109	93	nt	-20
- O=C(CS(=O)(=O)c1cccc2nsnc12)NCc1ccccc1Cl
    105	102	103	nt
- c1ccc(-c2nc3ccccc3[nH]2)cc1
    76	55	nt	-33
